GLA inh pH 4.5 – alpha-galactosidase A (human) inhibition, pH 4.5. AID 1467. activity change, negative = inhibition, % at 105 µM. 230,000 tested, under 10 active. purified enzyme, 4-MU-alpha-Gal fluorescence, pH 4.5; inconclusive = small, poorly fitted or top-dose-only inhibition, or a rising curve; inactive = flat fitted curve, though single readings scatter; no compound was filed as active;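 also: 0% = full activity with enzyme and -100% = basal without enzyme; dose as in the result columns while the protocol names 77 µM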
Rango dissoc inh – prevents RanGTP from dissociating the Rango-importin beta complex; O95149+P62826; Biochemical FRET Rango-importin beta, RanGTP-induced dissociation; Potency, µM (series often up to 46.1 µM), inactives show at the top dose activity change, negative = inhibition; 0.071% of 340,000 active; AID 540253; active means falling FRET ratio curve, often poorly fitted, with flat reads before Ran was added; inconclusive means other falling curves, or compound fluorescence or quenching; inactive means flat or rising ratio curve;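 also: potency is read from the fitted curve at half-maximal effect; % of control where 0% means no effect; nearly all actives have a fitted effect of over 45% in size; -100% = wells without RanGTP and RCC1; the record marks most hits as doubtful in a second field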
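Two FRET readings bracket the reaction: one 5 min after compound meets Rango–importin beta, another 45 min after RanGTP-RCC1 (0.6 uM Ran, 0.2 uM RCC1, 2 mM GTP) is added. Only the second defines inhibition.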
Rango-impB inh – Rango-importin beta binding inhibition; Rango CFP/YFP FRET sensor + importin beta, 45 min; Potency, µM (series often up to 92.2 µM), for inactives: top-dose inhibition of complex formation; 0.031% of 340,000 active; AID 540263; active = rising FRET ratio curve, often small or poorly fitted; inconclusive = mostly compound fluorescence or quenching in the first reads; inactive = flat curves in all reads;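 also: potency is read from the fitted curve at half-maximal effect; 0% = DMSO wells and 100% = buffer wells lacking importin beta; nearly all actives have a fitted effect of over 15% in size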
Target sequence (Q14974 whole entry, looked up): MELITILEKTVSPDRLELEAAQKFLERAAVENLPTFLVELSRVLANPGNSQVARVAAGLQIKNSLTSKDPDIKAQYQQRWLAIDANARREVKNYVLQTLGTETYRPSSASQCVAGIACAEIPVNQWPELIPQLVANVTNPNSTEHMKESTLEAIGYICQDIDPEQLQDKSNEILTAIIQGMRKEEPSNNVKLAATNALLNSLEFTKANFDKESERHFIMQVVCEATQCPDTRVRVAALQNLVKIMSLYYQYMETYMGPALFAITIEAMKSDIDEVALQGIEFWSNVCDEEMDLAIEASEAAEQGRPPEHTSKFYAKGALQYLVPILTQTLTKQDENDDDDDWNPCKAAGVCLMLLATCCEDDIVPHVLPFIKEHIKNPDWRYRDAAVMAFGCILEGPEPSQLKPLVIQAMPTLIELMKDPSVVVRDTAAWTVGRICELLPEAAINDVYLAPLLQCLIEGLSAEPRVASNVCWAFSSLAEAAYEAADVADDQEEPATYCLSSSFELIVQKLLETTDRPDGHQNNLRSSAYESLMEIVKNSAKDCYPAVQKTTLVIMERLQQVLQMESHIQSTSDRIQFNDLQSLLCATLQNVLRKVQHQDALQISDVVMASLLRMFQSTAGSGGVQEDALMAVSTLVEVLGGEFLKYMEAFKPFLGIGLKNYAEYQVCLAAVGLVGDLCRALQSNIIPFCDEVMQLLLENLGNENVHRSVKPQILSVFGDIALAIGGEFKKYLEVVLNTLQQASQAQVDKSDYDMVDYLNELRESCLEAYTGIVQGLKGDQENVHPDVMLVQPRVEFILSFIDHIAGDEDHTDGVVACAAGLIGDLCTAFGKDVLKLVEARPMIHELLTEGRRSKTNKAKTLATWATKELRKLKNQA
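FRET biosensor Rango (snurportin 1 IBB between N-terminal EYFP and C-terminal Cerulean), 50 nM in PBS/1 mM DTT/0.02% Tween-20/0.1% BSA, preincubated 5 min RT with compound; 0.125 microM importin beta added, 45 min RT, CFP/YFP FRET ratio read.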
miR-21 FLuc – raises the signal of a miR-21 reporter; HeLa miR-21 FLuc reporter, luciferase, 48 h; Potency, µM (highest dose often 38.3 µM), for inactives: at the highest dose reporter change, positive = more light; 340,000 tested, under 10 active; AID 2288; active = well fitted rising curve with a large enough effect; inconclusive = small, poorly fitted or top-dose-only effect; inactive = no such curve, though single readings can be large or run the other way;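 also: % of control where 0% means no effect; miR-21 action dims this reporter so a rising signal means less miR-21 action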
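HeLa cells stably expressing CMV-driven firefly luciferase with a downstream miR-21 binding sequence, endogenously expressing miR-21, were treated with titrations (up to about 40uM final) for 48 hours at 37 degree Celsius. Luciferase luminescence was read after lysis.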
The depositor's hits bear a star. A portion of the library; count on the stated rates, not on these rows.

What do the screens show for `CC(=O)Oc1ccc(N2C(=O)C3C(C2=O)C2(C)C=CC3(C)O2)cc1` (configuration not stated)?
GLA inh pH 4.5: 6; miR-21 FLuc: inconclusive

How did O=C(COc1ncnc2ccccc12)NC1CCCC1 do in these assays?
Rango dissoc inh: 21%; Rango-impB inh: -1.3%

Results for O=C(NCCc1ccc(Cl)cc1)C1CCCN1C(=O)Nc1ccc(F)cc1 (configuration not stated) ?
Rango dissoc inh: 4%; Rango-impB inh: -3.1%; miR-21 FLuc: 3%

What do the screens show for `O=C(NCCC1=CCCCC1)C(=O)NCc1ccccc1Cl`?
GLA inh pH 4.5: -1; Rango dissoc inh: 29%; Rango-impB inh: -3.5%; miR-21 FLuc: -3%

How did CCCN(CC(=O)Nc1ccccc1C)C(=O)CCCNC(=O)c1ccc(Cl)cc1 do in these assays?
Rango dissoc inh: 12%; Rango-impB inh: 0.4%

What do the screens show for `CNS(=O)(=O)c1cc(N)ccc1C`?
GLA inh pH 4.5: 8; Rango dissoc inh: -6%; Rango-impB inh: 0.0%; miR-21 FLuc: 2%

How did CN(C)S(=O)(=O)NC(=O)C1=C(N2CCCC2)COC1=O do in these assays?
Rango dissoc inh: 1%; Rango-impB inh: -5.2%

How did COc1ccc(Cc2nc3ccc(C(=O)N(C)CC4COCCO4)cc3o2)cc1 (configuration not stated) do in these assays?
Rango dissoc inh: -14%; Rango-impB inh: 0.4%; miR-21 FLuc: -35%

How did O=C(COc1ccc2ccccc2c1)NCC(=O)N/N=C/c1ccco1 do in these assays?
GLA inh pH 4.5: 4; Rango dissoc inh: 0%; Rango-impB inh: -0.7%; miR-21 FLuc: 0%

Results for CCCCOCC1CN(c2ccccc2)C(=O)CS1 (configuration not stated) ?
GLA inh pH 4.5: -8; Rango dissoc inh: -17%; Rango-impB inh: inconclusive; miR-21 FLuc: -2%

How did Clc1cccc(N/N=C(\Cc2nc3ccccc3[nH]2)c2ccccc2)c1 do in these assays?
GLA inh pH 4.5: -10; Rango dissoc inh: -13%; Rango-impB inh: -0.1%; miR-21 FLuc: -40%

How did COc1ccc(NC(=O)C2CC(=O)N(C(C)C)C2)cc1 (configuration not stated) do in these assays?
GLA inh pH 4.5: -1; Rango dissoc inh: -10%; Rango-impB inh: 2.1%; miR-21 FLuc: -2%

What do the screens show for `CCOc1ccccc1N1CCN(S(=O)(=O)c2ccc(Cl)s2)CC1`?
GLA inh pH 4.5: -20; Rango dissoc inh: -1%; Rango-impB inh: inconclusive; miR-21 FLuc: -1%

What do the screens show for `COc1cc(/C=N/Nc2nncc3ccccc23)cc(OC)c1OC`?
Rango dissoc inh: 25%; Rango-impB inh: 0.4%; miR-21 FLuc: -46%

What do the screens show for `CC(C)(C)C(=O)NC1=NN(c2c(Cl)cc(Cl)cc2Cl)C(=O)C1`?
GLA inh pH 4.5: 5; Rango dissoc inh: 10%; Rango-impB inh: 7.6%; miR-21 FLuc: -13%

Results for COc1ccc(CCNC(=O)CN2C(=O)C3(OCCCO3)c3ccccc32)cc1OC ?
GLA inh pH 4.5: 2; Rango dissoc inh: 6%; Rango-impB inh: -13%; miR-21 FLuc: 4%

Results for C#CC[N+](CC)(CC)CC#Cc1ccccc1 ?
GLA inh pH 4.5: -6; Rango dissoc inh: -4%; Rango-impB inh: 11%; miR-21 FLuc: 5%

What do the screens show for `CCCCN(C)CCNC(=O)c1ccc2c(c1)NC(=O)C(N1CCCCC1)S2` (configuration not stated)?
GLA inh pH 4.5: -2; Rango dissoc inh: -6%; Rango-impB inh: 2.7%; miR-21 FLuc: -1%

What do the screens show for `COc1ccc(NC(=O)C2CCCO2)c(OC)c1` (configuration not stated)?
Rango dissoc inh: 16%; Rango-impB inh: 0.1%; miR-21 FLuc: -4%

How did CCCCCCCNC(=O)C1CC(=O)N(C)C(=Nc2ccc(OC)cc2)S1 (configuration not stated) do in these assays?
GLA inh pH 4.5: 0; Rango dissoc inh: 2%; Rango-impB inh: -2.5%; miR-21 FLuc: 21%

How did Cc1ccc(CNC(=O)c2cc3c(C)nc4ccccc4c3o2)cc1 do in these assays?
GLA inh pH 4.5: -3; Rango dissoc inh: -2%; Rango-impB inh: -3.0%; miR-21 FLuc: 21%

How did CC(Nc1nc(-c2ccc(F)cc2)cs1)c1nc2cc(Cl)c(Cl)cc2n1CCCO (configuration not stated) do in these assays?
Rango dissoc inh: 1%; Rango-impB inh: -0.6%

What do the screens show for `CCOC(=O)c1ccc(NC(=O)c2ccc(CO)c(C(=O)NC3CCN(C(=O)OCC)CC3)c2)cc1`?
GLA inh pH 4.5: 0; Rango dissoc inh: 0%; Rango-impB inh: -1.8%; miR-21 FLuc: 5%

What do the screens show for `CCOC(=O)CSc1nc2ccccc2c(=O)n1-c1ccc(C)cn1`?
Rango dissoc inh: 6%; Rango-impB inh: 0.1%; miR-21 FLuc: -6%

What do the screens show for `O=S(=O)(NCCSc1ccccn1)c1ccc(Cl)cc1`?
GLA inh pH 4.5: 3; Rango dissoc inh: -9%; Rango-impB inh: 2.5%; miR-21 FLuc: -8%

How did COc1ccc(CNC(=O)C2CCN(C(=O)c3csc(Nc4ccc(C)cc4)n3)CC2)cc1 do in these assays?
Rango dissoc inh: 20%; Rango-impB inh: -4.6%; miR-21 FLuc: 17%

How did COc1cc2c(cc1OC)CN(Cc1cc(OC)c(O)c(OC)c1)CC2 do in these assays?
GLA inh pH 4.5: -1; Rango dissoc inh: 16%; Rango-impB inh: -5.3%; miR-21 FLuc: -7%

Results for COC(=O)c1cc2c(N)c(C(=O)c3ccccc3)sc2nc1C(OC)OC ?
GLA inh pH 4.5: -4; Rango dissoc inh: inconclusive; Rango-impB inh: inconclusive; miR-21 FLuc: -7%

How did O=C(CSc1nnc(-c2ccc(Br)cc2)o1)N1CCN(C(=O)c2ccco2)CC1 do in these assays?
GLA inh pH 4.5: 6; Rango dissoc inh: -10%; Rango-impB inh: inconclusive; miR-21 FLuc: 13%

What do the screens show for `Cc1cc(N2CCN(C(c3ccccc3)c3ccc(Cl)cc3)CC2)n2ncnc2n1` (configuration not stated)?
GLA inh pH 4.5: -10; Rango dissoc inh: 14%; Rango-impB inh: 0.7%; miR-21 FLuc: -5%

Results for O=C(Nc1nc(-c2ccc(F)cc2)cs1)c1cccnc1 ?
GLA inh pH 4.5: -7; Rango dissoc inh: 1%; Rango-impB inh: -9.8%; miR-21 FLuc: 1%

What do the screens show for `COC(=O)c1cccc(NC(=O)CCSc2ccc(Cl)cc2)c1C`?
GLA inh pH 4.5: -1; Rango dissoc inh: 1%; Rango-impB inh: -0.7%; miR-21 FLuc: -5%

How did CCn1c(=O)n(CC)c2cc(N3CCCC3)c(NC(=O)c3cc(Cl)ccc3OC)cc21 do in these assays?
Rango dissoc inh: -26%; Rango-impB inh: 0.8%; miR-21 FLuc: 2%

How did COC(=O)C(NC(=O)CCC(=O)N[C@@H](C(=O)OC)c1ccccc1)c1ccccc1 (some centres not stated) do in these assays?
Rango dissoc inh: 7%; Rango-impB inh: 0.1%; miR-21 FLuc: 1%

How did COc1cccc(C2CC(C(F)(F)F)n3ncc(C(=O)Nc4c(C)n(C)n(-c5ccccc5)c4=O)c3N2)c1 (configuration not stated) do in these assays?
GLA inh pH 4.5: 0; Rango dissoc inh: 5%; Rango-impB inh: 2.0%; miR-21 FLuc: -5%

Results for COCCn1c(SC(C(=O)Nc2cc(C)ccc2OC)c2ccccc2)nnc1-c1ccc(Cl)cc1 (configuration not stated) ?
GLA inh pH 4.5: -5; Rango dissoc inh: -7%; Rango-impB inh: -3.8%; miR-21 FLuc: 10%

What do the screens show for `Cc1cc(N/N=C/c2ccccc2F)c2ccccc2n1`?
GLA inh pH 4.5: 3; Rango dissoc inh: -13%; Rango-impB inh: 0.1%; miR-21 FLuc: -12%

Results for Cc1ccc(C(=O)Nc2nccs2)s1 ?
Rango dissoc inh: 1%; Rango-impB inh: 0.5%; miR-21 FLuc: -42%

What do the screens show for `CCOc1ccc(C(=O)Nc2cccc(-c3ccc4nncn4n3)c2)cc1`?
GLA inh pH 4.5: 7; Rango dissoc inh: 9%; Rango-impB inh: 6.7%; miR-21 FLuc: -13%

Results for CC(Cn1cncn1)NC(=O)c1cc(COc2cccc(C(F)(F)F)c2)on1 (configuration not stated) ?
Rango dissoc inh: 2%; Rango-impB inh: -0.6%; miR-21 FLuc: -8%

2 compounds drawn at random from those above:
Results for O=C(NCCc1ccc(Cl)cc1)C1CCCN1C(=O)Nc1ccc(F)cc1 (configuration not stated) ?
Rango dissoc inh: 4%; Rango-impB inh: -3.1%; miR-21 FLuc: 3%

Results for C#CC[N+](CC)(CC)CC#Cc1ccccc1 ?
GLA inh pH 4.5: -6; Rango dissoc inh: -4%; Rango-impB inh: 11%; miR-21 FLuc: 5%

(list continues)
What do the screens show for `O=c1oc2c(CN3CCOCC3)c(O)ccc2c2c1CCC2`?
GLA inh pH 4.5: inconclusive; Rango dissoc inh: -21%; Rango-impB inh: inconclusive; miR-21 FLuc: -6%

How did COCc1nnc(NC(=O)c2cc(C(=O)OC)cc([N+](=O)[O-])c2)s1 do in these assays?
GLA inh pH 4.5: 3; Rango dissoc inh: 2%; Rango-impB inh: 7.1%; miR-21 FLuc: -2%

What do the screens show for `CCc1noc(C)c1C(=O)Nc1cc(S(=O)(=O)N2CCOCC2)ccc1OCC(F)(F)F`?
Rango dissoc inh: 3%; Rango-impB inh: 0.4%

How did CC(C)C(C)NC(=O)COC(=O)C1CCN(S(=O)(=O)c2ccc3c(c2)OCCO3)CC1 (configuration not stated) do in these assays?
Rango dissoc inh: -21%; Rango-impB inh: -1.6%

What do the screens show for `CC1=C(C(=O)Nc2ccccc2C)C(c2cccnc2)n2nc(CCCO)nc2N1` (configuration not stated)?
GLA inh pH 4.5: -7; Rango dissoc inh: -4%; Rango-impB inh: -4.0%; miR-21 FLuc: 1%

What do the screens show for `O=S(=O)(Nc1ncccn1)c1ccc(NC(=S)N2CCN(Cc3ccc(F)cc3Cl)CC2)cc1`?
Rango dissoc inh: 0%; Rango-impB inh: 3.4%; miR-21 FLuc: -7%

How did O=C(N/N=C/c1cc(Cl)c(O)c(Cl)c1)c1cc2c(ccc3ccccc32)o1 do in these assays?
Rango dissoc inh: inconclusive; Rango-impB inh: inconclusive; miR-21 FLuc: -16%

How did O=C(CN1CCN(Cc2ccc(F)cc2Cl)C1=O)NCCCN1CCOCC1 do in these assays?
GLA inh pH 4.5: -2; Rango dissoc inh: 1%; Rango-impB inh: -1.5%; miR-21 FLuc: -12%

Results for Cc1ccc(NC(=S)NC(NC(=O)N(C)C)C(Cl)(Cl)Cl)cc1 (configuration not stated) ?
GLA inh pH 4.5: -4; Rango dissoc inh: 7%; Rango-impB inh: -1.7%; miR-21 FLuc: -9%

How did Cc1ccc(NC(=O)C2C3C=CC4(O3)C2C(=O)N(CCCN2CCCCC2)C4C(=O)NC2CCCCC2)cc1Cl (configuration not stated) do in these assays?
Rango dissoc inh: -9%; Rango-impB inh: -0.5%; miR-21 FLuc: 0%

Results for Cc1nc2scc(-c3ccc(Cl)cc3)c2c(=O)o1 ?
GLA inh pH 4.5: -1; Rango dissoc inh: 2%; Rango-impB inh: 5.6%; miR-21 FLuc: -2%

How did COc1ccc(N2C(=O)C(CC(=O)Nc3ccccc3)N(Cc3ccccn3)C2=S)cc1 (configuration not stated) do in these assays?
GLA inh pH 4.5: -3; Rango dissoc inh: -4%; Rango-impB inh: -2.2%; miR-21 FLuc: 20%

How did C/C(CC(=O)Nc1cccc(F)c1)=N\NC(=O)C(=O)NC1CCCCC1 do in these assays?
GLA inh pH 4.5: 8; Rango dissoc inh: -1%; Rango-impB inh: -3.8%; miR-21 FLuc: -3%

What do the screens show for `CCOCCCNC(=S)N1CCCN(c2nc3cc(C)c(C)cc3cc2C#N)CC1`?
GLA inh pH 4.5: -2; Rango dissoc inh: inconclusive; Rango-impB inh: inconclusive; miR-21 FLuc: -9%

How did O=C(COC(=O)C1CCN(S(=O)(=O)c2ccc3c(c2)OCCO3)CC1)NC1CCCCC1 do in these assays?
Rango dissoc inh: -7%; Rango-impB inh: -0.2%

Results for CC(C)CNC1=CC(=O)CC(c2ccco2)C1 (configuration not stated) ?
GLA inh pH 4.5: 1; Rango dissoc inh: 6%; Rango-impB inh: 1.6%; miR-21 FLuc: -1%
